Screening data as filed in PubChem.
Rango-impB inh = inhibitors of Rango-importin beta complex formation. Q14974. Rango CFP/YFP FRET sensor + importin beta, 45 min. Potency, µM (titrated, usually from 92.2 µM), inactives show at the highest dose inhibition of complex formation. 0.031% of 340,000 active. AID 540263; active = rising FRET ratio curve, often small or poorly fitted; inconclusive = mostly compound fluorescence or quenching in the first reads; inactive = flat curves in all reads;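 further: potency means the concentration at half of the fitted maximal effect; 0% = DMSO wells and 100% = buffer wells lacking importin beta; nearly all actives have a fitted effect of over 15% in size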
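FRET biosensor Rango (snurportin 1 IBB between N-terminal EYFP and C-terminal Cerulean), 50 nM in PBS/1 mM DTT/0.02% Tween-20/0.1% BSA, preincubated 5 min RT with compound; 0.125 microM importin beta added, 45 min RT, CFP/YFP FRET ratio read.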
Rango dissoc inh = inhibitors of RanGTP-induced Rango-importin beta complex dissociation; Biochemical FRET Rango-importin beta, RanGTP-induced dissociation; Potency, µM (top dose mostly 46.1 µM), inactives show at the top dose activity change, negative = inhibition; 0.071% of 340,000 active; AID 540253; active means falling FRET ratio curve, often poorly fitted, with flat reads before Ran was added; inconclusive means other falling curves, or compound fluorescence or quenching; inactive means flat or rising ratio curve;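 further: potency means the concentration at half of the fitted maximal effect; % of control where 0% means no effect; nearly all actives have a fitted effect of over 45% in size; -100% = wells without RanGTP and RCC1; the record marks most hits as doubtful in a second field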
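Two FRET readings bracket the reaction: one 5 min after compound meets Rango–importin beta, another 45 min after RanGTP-RCC1 (0.6 uM Ran, 0.2 uM RCC1, 2 mM GTP) is added. Only the second defines inhibition.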
GLA inh pH 4.5 = alpha-galactosidase A (human) inhibition, pH 4.5; 230,000 tested, under 10 active; AID 1467; P06280; activity change, negative = inhibition, % at 105 µM; purified enzyme, 4-MU-alpha-Gal fluorescence, pH 4.5; inconclusive = small, poorly fitted or top-dose-only inhibition, or a rising curve; inactive = flat fitted curve, though single readings scatter; no compound was filed as active;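 further: 0% = full activity with enzyme and -100% = basal without enzyme; dose as in the result columns while the protocol names 77 µM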
Target sequence (P06280 whole entry, looked up): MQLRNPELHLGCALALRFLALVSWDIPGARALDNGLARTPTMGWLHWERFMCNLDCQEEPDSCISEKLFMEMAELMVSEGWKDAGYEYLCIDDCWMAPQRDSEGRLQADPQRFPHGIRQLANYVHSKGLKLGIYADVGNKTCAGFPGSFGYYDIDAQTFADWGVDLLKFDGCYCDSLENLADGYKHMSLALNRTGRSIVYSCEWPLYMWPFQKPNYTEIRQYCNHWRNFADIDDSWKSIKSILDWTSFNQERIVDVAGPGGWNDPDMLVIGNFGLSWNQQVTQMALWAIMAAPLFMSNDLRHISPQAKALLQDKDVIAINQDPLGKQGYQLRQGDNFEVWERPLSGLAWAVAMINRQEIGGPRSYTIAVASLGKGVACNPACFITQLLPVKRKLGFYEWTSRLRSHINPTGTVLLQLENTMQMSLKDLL
miR-21 FLuc = raises the signal of a miR-21 reporter; HeLa miR-21 FLuc reporter, luciferase, 48 h; Potency, µM (series often up to 38.3 µM), for inactives: top-dose reporter change, positive = more light; 340,000 tested, under 10 active; AID 2288; active = well fitted rising curve with a large enough effect; inconclusive = small, poorly fitted or top-dose-only effect; inactive = no such curve, though single readings can be large or run the other way;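 further: % of control where 0% means no effect; miR-21 action dims this reporter so a rising signal means less miR-21 action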
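HeLa cells stably expressing CMV-driven firefly luciferase with a downstream miR-21 binding sequence, endogenously expressing miR-21, were treated with titrations (up to about 40uM final) for 48 hours at 37 degree Celsius. Luciferase luminescence was read after lysis.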
Numbers without * were called inactive; u = inconclusive; x = not tested or not shown; & = joins results of further samples. Not all compounds are listed; rates above refer to the full screens.

Rango-impB inh	Rango dissoc inh	GLA inh pH 4.5	miR-21 FLuc	Compound
-1.1%	-3%	0	-8%	C/C(=C\C(=O)C(F)(F)F)Nc1ccc(C(F)(F)F)cc1
0.3%	8%	5	-4%	CSCCC(Nc1nc2ccccc2s1)C(=O)O (centres undefined)
-1.9%	-12%	x	4%	CC1CCCC(N2CCN(S(=O)(=O)c3ccccc3)CC2)C1 (centres undefined)
-2.0%	18%	-5	2%	CCCCNC(=O)C(=O)NCCCn1ccnc1
-0.3%	2%	-4	-4%	C=CCn1c(SCC(=O)Nc2ncc(Cc3ccc(Br)cc3)s2)nnc1-c1ccncc1
1.7%	4%	-1	-5%	CSC1=N/C(=C/c2cccnc2)C(=O)N1Cc1ccc(Cl)cc1
5.1%&4.0%	4%&-23%	0&1	-12%&-4%	CCSc1nc2ccccc2[nH]1
7.0%	9%	x	x	NS(=O)(=O)c1ccc(NC(=O)COC(=O)C2CC2)cc1
0.4%	8%	-10	-1%	CCN(CC)c1ccc(NC(=O)c2ccccc2F)cc1S(=O)(=O)Nc1ccccc1OC
-4.6%	10%	2	1%	CCCCOC(=O)C1[C@H]2C(=O)N(CCc3ccccc3)C[C@]23C=C[C@H]1O3 (some centres undefined)
u	u	-26	-9%	O=C(O)C1C2C=CC(O2)C1C(=O)NCCC1=CCCCC1 (centres undefined)
2.1%	-8%	x	6%	O=C(CCC1CCN(C(=O)c2cccc(Cl)c2F)CC1)Nc1ccccc1
0.6%	2%	x	x	CCOC(=O)C1(Cc2cccc(OC)c2)CCCN(C(=O)CSC)C1 (centres undefined)
-2.2%	-2%	-4	-1%	c1ccc(-c2csc(Nc3nc(N4CCOCC4)nc(N4CCOCC4)n3)n2)cc1
1.0%	23%	-2	-28%	O=C(NCc1ccc2c(c1)OCO2)C(=O)Nc1ccccc1
6.9%	36%	x	0%	Cc1n[nH]c(C)c1S(=O)(=O)N1CCC(C(=O)Nc2cccc(F)c2)CC1
3.6%	5%	-5	12%	O=C(Nc1ccc(-c2nc3ccccc3o2)cc1)C1CCCO1 (centres undefined)
-1.4%	-2%	-2	-14%	CCOC(=O)c1ccc(CSc2n[nH]c(C)n2)o1
1.0%	-14%	x	x	Cc1cc(Cl)ccc1C1=CC(=O)C[C@H](c2ccc(F)cc2)C1
3.9%	-15%	3	0%	Nc1ccn(Cc2cccc(F)c2)n1
-1.3%	0%	-1	-7%	CN(C)/N=C/c1c(O)ccc2ccccc12
1.7%	30%	x	x	O=C(COc1ccc(Cl)cc1Cl)Nc1ccccc1F
-2.8%	-3%	-11	-5%	CC(=O)N1CCc2cc(S(=O)(=O)NC(CC(C)C)C(=O)N3CCc4ccccc4C3)ccc21 (centres undefined)
u	21%	2	1%	O=C(c1cccnc1)N1CCN(C(=O)c2ccco2)CC1
0.2%	-4%	-4	5%	CCN(C(=O)CN1CCN(c2cccc(Cl)c2)CC1)c1c(N)n(Cc2ccccc2)c(=O)[nH]c1=O

Look-ups from the results shown:
O=C(O)C1C2C=CC(O2)C1C(=O)NCCC1=CCCCC1 (centres undefined) in GLA inh pH 4.5 shows -26
C/C(=C\C(=O)C(F)(F)F)Nc1ccc(C(F)(F)F)cc1 in miR-21 FLuc shows -8%

Later entries.
Rango-impB inh	Rango dissoc inh	GLA inh pH 4.5	miR-21 FLuc	Compound
-0.5%	22%	x	-7%	Cc1[nH]c(C)c(S(=O)(=O)NCCc2ccccc2)c1C(=O)N1CCCC1
1.4%	18%	4	-1%	COc1ccc(N2C(=O)CCC(C(=O)O)C2c2ccc(F)cc2)cc1 (centres undefined)
0.3%	1%	-11	u	COc1ccc(Nc2nc(-c3ccccc3)nc3ccccc23)cc1S(=O)(=O)N1CCOCC1
2.3%	16%	x	-1%	Cc1cc(C)n(C(=O)c2cc([N+](=O)[O-])cc([N+](=O)[O-])c2)n1
-2.7%	0%	0	-20%	COc1ccccc1OCCn1c(=O)sc2ccccc21
-0.9%	3%	1	-15%	CCOC(=O)Cc1csc(SCn2nnc3ccccc3c2=O)n1
8.9%	-4%	x	x	O=C(CNC(=O)c1ccc(Br)o1)OCc1ccc(Br)cc1
-0.5%	-1%	5	1%	C=CCN(c1ccc(Cl)cc1)S(=O)(=O)c1cccc(C(=O)O)c1
-1.4%	-2%	x	0%	Cc1ccccc1N=C1NC(=O)C(CO)(CO)S1
1.5%	9%	x	-3%	O=C(O)c1sccc1Oc1ccc(NS(=O)(=O)c2ccc(Cl)cc2)cc1
u	-16%	1	-6%	Cc1ccc(OCCNC(=O)/C=C/c2ccccc2)cc1
6.6%	17%	7	-12%	O=C(C1CCC(CNc2c(N3CCOCC3)c(=O)c2=O)CC1)N1CCN(c2ccccc2)CC1 (centres undefined)
8.1%	-6%	-1	0%	CCOc1cc(-c2nc(-c3ccc(OC)cc3)no2)cc(OCC)c1OCC
-1.9%	16%	x	x	CCc1ccc([C@@H]2CC=C(C(=O)O)[C@H](c3ccc(Br)cc3)N2S(=O)(=O)c2ccc(C)cc2)cc1
0.4%	2%	-6	5%	CN1CCN(C(=S)NC(CC(=O)c2ccccc2)c2ccccc2)CC1 (centres undefined)
u	-13%	-10	-5%	CC1CN(C2CC(C)(C)NC(C)(C)C2)CCC1=O (centres undefined)
-0.8%	-1%	x	x	CCCCN1C(=O)C(=O)N(CC(=O)Nc2cc(Cl)ccc2OC)C1=O
5.1%	-1%	x	x	CCOc1ccc(NC(=O)C2CC(=O)N(CCc3ccc(OC)c(OC)c3)C2)cc1OCC (centres undefined)
2.3%	0%	x	x	Cc1cccc([N+](=O)[O-])c1NC(=O)COC(=O)C1CC2CCCC(C1)C2=O (centres undefined)
4.6%	12%	x	2%	CC1(C)C(Cl)C(=O)C(C(=O)c2ccccc2)C(=O)C1Cl (centres undefined)
-3.2%	u	-3	1%	COc1cccc(-c2nc(CS(=O)(=O)CC(=O)NC3CCCc4ccccc43)c(C)o2)c1 (centres undefined)
-2.0%	-8%	x	x	C=CCOC(=O)N1CCC2CC1c1cc(-c3cccc(C)c3)ccc12 (centres undefined)
0.6%	5%	-1	-1%	COc1cc(NC(=O)CCCOc2ccc(Cl)cc2Cl)c(C(=O)O)cc1OC
0.6%	5%	3	-15%	COc1cccc(C(=O)NCC(=O)OCC(=O)c2ccccc2)c1
4.2%	u	x	x	CCN(CC)c1cccc(OCC(=O)N2c3ccccc3CC2C)c1 (centres undefined)
0.8%	-8%	x	-14%	COc1ccc(C(=O)Nc2ccc(OCC(=O)N3CCOCC3)cc2)c(OC)c1OC
x	x	5	1%	Cc1ccc(S(=O)(=O)N2CCN(c3nc(C)nc4sc(C)c(C)c34)CC2)cc1
-1.2%	-4%	x	-1%	Cc1nc2ccc(NC(=O)c3ccc(=O)[nH]c3)cc2s1
-3.2%	-7%	u	-32%	Cc1ccc(SCC(=O)Nc2ccc(-c3nnc(-c4ccco4)o3)cc2)cc1
-4.0%	9%	x	-8%	CC(=O)c1ccc(NC(=O)C(C)Sc2n[nH]c(-c3cccnc3)n2)cc1 (centres undefined)
u	u	-2	-11%	Cc1ccc(C2C(C(=O)c3ccco3)=C(O)C(=O)N2c2nnc(C)s2)cc1 (centres undefined)
-2.1%	15%	x	x	Cc1ccc(CCN2C(Nc3ccccc3)=NC[C@@H]2C)cc1
5.5%	44%	x	-1%	COc1ccccc1OCCn1c(SCC(=O)O)nc2ccccc21
1.8%	18%	x	-7%	COc1cccc(CC(=O)NCCCSc2ccccc2)c1
u	u	3	-10%	Cc1csc(NC(=O)CSc2nsc(SCC(=O)Nc3nc(C)cs3)c2C#N)n1
u	u	-2	-42%	O=c1[nH]c2ccccc2nc1/C=C(\O)c1cccs1
4.7%	u	x	-1%	C/C(CC(=O)Nc1cccc(F)c1)=N\NC(=O)c1ccncc1
-1.6%	1%	2	4%	CC(C)(C)C(=O)COc1ccccc1[N+](=O)[O-]
0.4%	7%	x	x	O=C(COC(=O)/C=C/c1ccccc1)Nc1cccnc1Cl
-5.0%	22%	0	-1%	COC(=O)C1C(O)=C(C(C)=N)C(=O)CC1(C)C (centres undefined)
u	4%&-20%	3	u	O=C(Nc1nc(-c2ccc(S(=O)(=O)N3CCOCC3)cc2)cs1)c1ccccc1
-5.2%	0%	1	-1%	O=C(Cc1ccc(Cl)cc1)N1CCN(C(=O)c2ccco2)CC1
0.0%	-13%	x	x	CCOc1ncccc1C(=O)Nc1cc(S(=O)(=O)N2CCCCC2)ccc1Cl
0.1%	-6%	x	12%	CCOC(=O)N1CCN(C(=O)c2ccc(N(C)S(=O)(=O)c3ccc(C)cc3)cc2)CC1
-1.9%	-4%	3	10%	Cc1ccc(CC(=O)Nc2ccc(F)c([N+](=O)[O-])c2)cc1C
0.0%	0%	x	-15%	O=C(NC1CCCC1)c1cc(=O)[nH]c2ccccc12
-4.5%	-5%	-1	-7%	Cc1nc(N2CCOCC2)nc(OCCN2CCOCC2)c1[N+](=O)[O-]
0.5%	22%	5	-5%	CCCCN(C)Cc1c(C)[nH]c2c(Cl)cccc2c1=O
0.2%	1%	3	4%	COC(OC)c1nc(SCC(=O)Nc2cccc(Cl)c2)ncc1C(=O)O
2.6%	-14%	x	1%	O=C1COc2ccc(S(=O)(=O)N3CCCCCC3)cc2N1

The list continues:
Rango-impB inh	Rango dissoc inh	GLA inh pH 4.5	miR-21 FLuc	Compound
0.7%	-24%	x	x	O=C(OCCOc1cccc(Cl)c1)c1cc(S(=O)(=O)N2CCCCC2)ccc1N1CCOCC1
u	-12%	x	x	CCN(CC)c1ccc(C(=O)NNC(=O)c2cccn2C)cc1
2.7%	1%	-5	-7%	CSCCC(NC(=O)OCc1ccccc1)C(=O)O (centres undefined)
-3.0%	-11%	x	-19%	Cc1ccc(NC(=O)C2Oc3ccccc3OC2C)cc1 (centres undefined)
0.1%	1%	x	9%	CC(C)c1ccc(N(C(=O)c2ccc3c(c2)OCO3)C2C=CS(=O)(=O)C2)cc1 (centres undefined)
-0.6%	5%	x	x	O=C(COc1ccccc1[N+](=O)[O-])N1CCN(c2ccccn2)CC1
7.8%	3%	-7	-2%	CN1CCN(c2nc(-c3ccccc3)nc3c2oc2ccccc23)CC1
u	u	-12	-9%	CCOc1ccc(C(=O)CC(=O)C(=O)NCCc2ccc(OC)c(OC)c2)cc1

Rewritten comma-delimited: part of the list above
SMILES,Rango-impB inh,Rango dissoc inh,GLA inh pH 4.5,miR-21 FLuc
Cc1nc(N2CCOCC2)nc(OCCN2CCOCC2)c1[N+](=O)[O-],-4.5%,-5%,-1,-7%
CCCCN(C)Cc1c(C)[nH]c2c(Cl)cccc2c1=O,0.5%,22%,5,-5%
COC(OC)c1nc(SCC(=O)Nc2cccc(Cl)c2)ncc1C(=O)O,0.2%,1%,3,4%
O=C1COc2ccc(S(=O)(=O)N3CCCCCC3)cc2N1,2.6%,-14%,x,1%
O=C(OCCOc1cccc(Cl)c1)c1cc(S(=O)(=O)N2CCCCC2)ccc1N1CCOCC1,0.7%,-24%,x,x
CCN(CC)c1ccc(C(=O)NNC(=O)c2cccn2C)cc1,u,-12%,x,x
CSCCC(NC(=O)OCc1ccccc1)C(=O)O (centres undefined),2.7%,1%,-5,-7%
Cc1ccc(NC(=O)C2Oc3ccccc3OC2C)cc1 (centres undefined),-3.0%,-11%,x,-19%
CC(C)c1ccc(N(C(=O)c2ccc3c(c2)OCO3)C2C=CS(=O)(=O)C2)cc1 (centres undefined),0.1%,1%,x,9%
O=C(COc1ccccc1[N+](=O)[O-])N1CCN(c2ccccn2)CC1,-0.6%,5%,x,x
CN1CCN(c2nc(-c3ccccc3)nc3c2oc2ccccc23)CC1,7.8%,3%,-7,-2%
CCOc1ccc(C(=O)CC(=O)C(=O)NCCc2ccc(OC)c(OC)c2)cc1,u,u,-12,-9%
